Screens deposited in PubChem by National Center for Advancing Translational Sciences (NCATS).
A488 autofl – qHTS Assay for Spectroscopic Profiling in A488 Spectral Region; compound autofluorescence, A488 spectral region, dye equivalency; hits give high values; max dye equivalency, M; actives 0.1% (n = 59,000); active = above 10 nM dye equivalent; inconclusive = 1 to 10 nM; inactive = 1 nM or less; about half of its hits are not listed in these tables;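 further: highest value over a series up to 38 µM; compound alone in buffer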
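Autofluorescence read at ex 480/em 540 nm after 15 min RT in 100 mM Tris pH 8.0; compound signal normalized to A488 standard series on each plate, reported as dye-equivalent concentration at each test concentration.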
A647 fluor – qHTS Assay for Spectroscopic Profiling in A647 Spectral Region. AID 592, 2007. max dye-equivalent concentration, M. 59,000 tested, under 10 active. Compound fluorescence, A647 channel (570/671 nm), Tris buffer; active means above 1 µM dye equivalent; inconclusive means 0.1 to 1 µM; inactive means 0.1 µM or less;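 further: values scaled relative to a standard on each plate; highest value over a series up to 38 µM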
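Compound fluorescence was measured in 100 mM Tris buffer, pH 8.0, after 15 min at room temperature, using 570 nm excitation and 671 nm emission filters. Signal was normalized to a per-plate Alexa 647 standard curve and expressed as dye-equivalent concentration at each compound concentration.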
Resorufin autofl – qHTS Assay for Spectroscopic Profiling in Resorufin Spectral Region; max dye-equivalent concentration, M; Compound fluorescence, resorufin region 547/598 nm, buffer; hits give high values; actives 0.04% (n = 59,000); active = above 10 nM dye equivalent; inconclusive = 1 to 10 nM; inactive = 1 nM or less; a few of its hits are not listed in these tables; further: highest value over a series up to 38 µM
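Compounds in 100 mM Tris buffer, pH 8.0, incubated 15 min at room temperature, then read with 547 nm excitation and 598 nm emission filters. Fluorescence was converted to dye-equivalent concentration using an on-plate six-point resorufin standard curve.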
AID923 – qHTS Assay for Allosteric/Competitive Inhibitors of Caspase-1: Spectroscopic Profiling in AFC Spectral Region; compound fluorescence, AFC spectral region (405/520 nm); almost no hit is shown here; Potency, µM (top dose mostly 57.5 µM), without a hit: at the top dose fluorescence increase, usual class: activators; actives 1.1% (n = 75,000); AID 923, 2007; active means well fitted activation curve with a large enough effect; inconclusive means small, poorly fitted or top-dose-only effect;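 further: potency means the concentration at half of the fitted maximal effect; 0% is about no effect; scaled to a free AFC standard on each plate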
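Baseline compound fluorescence (AFC region, 405 nm ex/520 nm em) taken from the intercept of kinetic reads with 50 nM caspase-1 and 5 uM Ac-WEHD-AFC; normalized to an on-plate AFC standard curve; compounds titrated up to 57 uM.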
TSHR agonist – qHTS Assay for Agonists of the Thyroid Stimulating Hormone Receptor | Potency, µM (series often up to 57.1 µM), for inactives: at the highest dose activation, usual class: activators | actives 0.48% (n = 73,000) | HEK293-CNG-TSHR cells (CNG channel as cAMP sensor), membrane potential dye, cAMP | Thyrotropin receptor (Homo sapiens), P16473; active = well fitted activation curve of enough size with the parental cells flat; inconclusive = any curve in the parental cells; inactive = parental cells flat and receptor cells flat or falling; further: potency means the concentration at half of the fitted maximal effect; % of control where 0% means no effect; weak receptor curves with flat parental cells got no call and are not listed
Target sequence (P16473 whole entry, looked up): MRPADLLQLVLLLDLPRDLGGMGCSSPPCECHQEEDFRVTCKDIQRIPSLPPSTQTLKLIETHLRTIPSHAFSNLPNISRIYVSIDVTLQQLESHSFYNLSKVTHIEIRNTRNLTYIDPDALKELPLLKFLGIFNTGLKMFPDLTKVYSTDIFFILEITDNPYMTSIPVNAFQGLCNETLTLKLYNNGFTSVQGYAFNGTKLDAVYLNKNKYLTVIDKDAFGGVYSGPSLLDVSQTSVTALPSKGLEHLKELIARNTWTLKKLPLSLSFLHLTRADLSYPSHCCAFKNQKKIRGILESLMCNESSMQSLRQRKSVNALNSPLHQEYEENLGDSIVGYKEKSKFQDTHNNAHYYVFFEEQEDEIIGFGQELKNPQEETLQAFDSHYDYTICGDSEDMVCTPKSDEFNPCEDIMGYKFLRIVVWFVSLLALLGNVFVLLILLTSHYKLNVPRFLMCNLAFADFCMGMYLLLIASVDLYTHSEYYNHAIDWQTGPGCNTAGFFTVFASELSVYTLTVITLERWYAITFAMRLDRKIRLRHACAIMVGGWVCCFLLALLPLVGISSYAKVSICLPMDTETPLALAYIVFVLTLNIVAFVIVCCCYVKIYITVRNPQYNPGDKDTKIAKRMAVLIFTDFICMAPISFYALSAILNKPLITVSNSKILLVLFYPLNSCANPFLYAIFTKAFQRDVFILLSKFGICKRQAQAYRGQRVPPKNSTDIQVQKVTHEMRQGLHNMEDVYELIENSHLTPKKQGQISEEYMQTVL
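HEK 293 cells stably expressing TSHR and a cAMP-gated CNG channel; parental CNG-only cells as counterscreen. Cells preloaded 60 min with membrane potential dye plus 100 uM RO 20-1724, then compound 30 min; fluorescence read at 590 nm.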
Starred values were filed as active, the others as inactive; i = inactive; ? = inconclusive; . = not tested or not shown; & = joins results of further samples; [ ] = dose if it differs, or a comment. An excerpt. The share of hits here may be higher or lower than overall.

Below each compound – A488 autofl	A647 fluor	Resorufin autofl	AID923	TSHR agonist
(1) COC(=O)[C@@]1(Cc2ccccc2)[C@H]2c3cc(C(=O)N(C)C)n(Cc4ccc(O)c(OC)c4)c3C[C@H]2CN1C(=O)c1ccccc1
→ .	.	.	-3.8%	?
(2) Cc1cc(C)c(S(=O)(=O)N(C)CC(=O)N2CCCCC2)c(C)c1
→ i	9.9e-09	i	-1.6%	2%
(3) Cc1cc(C(=O)OCC(=O)Nc2cc(C(F)(F)F)ccc2N2CCOCC2)c(C)o1
→ i	1.1e-08	i	0.7%	?
(4) Cn1c(=O)cc(OCCCC(=O)NCc2ccco2)c2ccccc21
→ i	7.9e-09	i	-0.4%	-2%[11.4 µM]
(5) CC1Cc2nc(SCC(=O)N3CCc4ccccc43)n(C)c(=O)c2S1 (configuration not stated)
→ i	5.5e-09	i	-0.7%	?
(6) FC(F)(F)c1ccc(-n2ccnc2)nc1
→ i	1.1e-08	i	-1.0%	-17%
(7) Cn1c(=O)c2c(nc(NCCCN3CCOCC3)n2Cc2cccc(Cl)c2)n(C)c1=O
→ i	3.2e-08	i	-0.2%	2%
(8) CCC(C)C(NC(=O)C1CCC(C)CC1)C(=O)NC(C(=O)OC)C(C)C (configuration not stated)
→ i	3e-08	i	1.0%	0%
(9) CCCCOC(=O)C1[C@H]2C(=O)N(Cc3cccs3)C[C@]23C=C[C@H]1O3 (some centres not stated)
→ i	2.6e-09	i	-1.6%	-1%
(10) c1ccc2c(Nc3ccncc3)nc(-c3ccc4c(c3)OCO4)nc2c1
→ i	4e-08	i	-1.4%	12%
(11) N#CC1=C(SCC(=O)NC2CCCCC2)NC(=O)CC1c1ccco1 (configuration not stated)
→ i	3.2e-09	i	1.0%	4%
(12) O=C(Cn1cnc2c(nnn2Cc2ccc(F)cc2)c1=O)NCc1ccco1
→ i	1e-09	i	0.0%	-1%
(13) Cc1ccc(-n2ncc3c(N4CCN(c5ccc(F)cc5)CC4)ncnc32)c(C)c1
→ i	6.8e-09	i	-2.9%	7%
(14) CCN(CC)C(=O)Oc1ccc(NC(C)=O)cc1
→ .	.	.	-1.2%	6%[11.4 µM]
(15) Cn1c(=O)[nH]c2cc(Cl)cnc21
→ i	9e-08	i	.	.
(16) Cc1cc(C)nc(N2CCN(c3nc(C)nc4c3oc3ccccc34)CC2)n1
→ i	2e-08	i	-0.2%	14%
(17) Cc1ccc2nc(/C(C#N)=N/O)[nH]c2c1
→ i	6.5e-08	i	3.1%	-1%
(18) CN=C(NC#N)SCC(=O)c1ccc(Cl)cc1Cl
→ i	1e-09	i	1.2%	10%
(19) Oc1c(C(c2ccccc2)N2CCN(Cc3ccccc3)CC2)sc2ncnn12 (configuration not stated)
→ .	.	.	1.9%	?
(20) O=C(C1CC1)N1CCN=C1SCc1cccc(F)c1
→ .	.	.	2.5%	5%

The list continues:
Below each compound – A488 autofl	A647 fluor	Resorufin autofl	AID923	TSHR agonist
(21) Cc1ccc(Nc2nc(C3CC3)cs2)cc1
→ .	.	.	-0.1%	0%
(22) COc1cccc(-c2nc(CS(=O)(=O)CC(=O)N3CCN(C)CC3)c(C)o2)c1
→ .	.	.	7.2%	1%
(23) COc1ncc2ncc(=O)n(C)c2n1
→ i	3.7e-09	i	0.9%	-4%
(24) O=C(CSCC(=O)N1CCCCC1)OCC(=O)c1c[nH]c2ccccc12
→ i	1.4e-08	i	-0.8%	?
(25) CCc1c(O)nc(SCC(=O)N2CCCCC2)n(-c2ccccc2C)c1=O
→ .	.	.	0.9%	-1%
(26) NCCNC(=O)c1ccc(Cl)cc1
→ i	1e-09	i	-1.6%&-3.2%	?
(27) O=C(O)C(=Cc1ccc(-c2ccccc2)cc1)C(=O)O
→ i	4.9e-08	i	1.0%[11.5 µM]	5%[11.4 µM]
(28) CCCc1nnc(NC(=O)Nc2ccccc2OC)s1
→ i	2.6e-08	i	.	.
(29) N#CCCSCc1ccc2oc(C(=O)O)cc2c1
→ i	3.3e-08	i	0.5%	.
(30) CCCc1[nH]nc2c1C1(C(=O)N(C(C)C)c3ccccc31)C(C#N)=C(N)O2 (configuration not stated)
→ i	1e-09	i	0.8%	14%
(31) CC(=O)c1ccc(N2CCN(C(=O)C3CCN(S(=O)(=O)Cc4ccccc4)CC3)CC2)cc1
→ i	1.2e-08	i	1.4%	13%
(32) COCCn1c(SCc2nnc(-c3ccccc3)o2)nc2sc3c(c2c1=O)CCC3
→ i	1.8e-09	i	-1.0%	?
(33) C/C(=C\[C@@H](NP(=O)(c1ccccc1)c1ccccc1)c1ccccc1)CO[Si](c1ccccc1)(c1ccccc1)C(C)(C)C
→ .	.	.	0.6%	4%
(34) C=CCn1c(CNC(=O)c2ccccc2C)nnc1SCC(=O)NC1CCCC1
→ i	1.8e-08	i	-1.2%	10%
(35) CCOC(=O)Cn1nnnc1C(CC)N(Cc1cccs1)Cc1cc2ccc(OC)cc2[nH]c1=O (configuration not stated)
→ i	1e-09	i	-1.2%	.
(36) O=C(CCCc1nc(-c2ccc(Cl)cc2)no1)Nc1cccnc1
→ i	1.9e-09	i	-0.3%	11%
(37) CC(=O)C1C(c2ccc(F)c(F)c2)NC(=O)NC1(O)C(F)(F)F (configuration not stated)
→ i	1e-09	i	0.9%	-1%
(38) O=C(Cn1cc2c(n1)CCCC2)NCCCN1CCN(c2ccccc2F)CC1
→ .	.	.	5.4%	12%
(39) Cc1ccc(-n2c(SCC(=O)OC(C)C)nnc2-c2ccccn2)cc1
→ i	3.5e-08	i	0.8%	10%
(40) CN1C[C@H](C(=O)N[C@]2(C)O[C@@]3(O)[C@H]4CCCN4C(=O)[C@H](Cc4ccccc4)N3C2=O)C[C@H]2c3cccc4[nH]cc(c34)C[C@@H]21
→ .	.	.	-3.9%	-12%

Limited to AID923, A488 autofl and Resorufin autofl (2 entries from above):
No.	SMILES	AID923	A488 autofl	Resorufin autofl
23	COc1ncc2ncc(=O)n(C)c2n1	0.9%	i	i
24	O=C(CSCC(=O)N1CCCCC1)OCC(=O)c1c[nH]c2ccccc12	-0.8%	i	i

(continued)
Below each compound – A488 autofl	A647 fluor	Resorufin autofl	AID923	TSHR agonist
(41) COc1ccc(NC(=O)CC2SC(=Nc3ccccc3)NC2=O)c(OC)c1 (configuration not stated)
→ .	.	.	-5.0%	-5%
(42) C=CC1=C(C)C2=Cc3c(C=C)c(C)c4[n]3[Sn+2][n]3c(c(C)c(CCC(=O)O)c3=CC3=NC(=C4)C(C)=C3CCC(=O)O)=CC1=N2
→ .	.	.	-4.1%	2%
(43) COc1ccc(NCc2cc3ccccc3[nH]c2=O)cc1
→ i	4.8e-09	i	.	.
(44) O=C(Cn1ccsc1=NC(=O)c1ccco1)c1ccccc1
→ i	1e-09	i	0.3%	14%
(45) COc1ccccc1Nc1nc(C)cc(C)c1C(N)=O
→ i	1e-09	i	1.2%	-5%
(46) CCOC(=O)N1CCC(NC(=O)Cn2c3ccccc3c3cn[nH]c(=O)c32)CC1
→ i	8.4e-09	i	1.1%	-3%
(47) COc1ccccc1CN1CC2(CCN(S(=O)(=O)c3ccccc3)CC2)C1
→ i	1e-09	i	-0.6%	8%
(48) N#Cc1ccccc1OC[C@H](O)CNCCNC(=O)Nc1ccccc1
→ .	.	.	-2.4%	1%
(49) CN1CC(=O)N(CC(=O)Nc2ccc(F)cc2)c2ccccc2C1=O
→ i	1e-09	i	0.6%	0%
(50) CCN1C(=O)[C@H]2[C@H]3[C@H](O)[C@H](O)C/C(=N/OC[C@@H](O)COCc4ccco4)[C@@H]3CC[C@@H]2C1=O
→ .	.	.	1.9%&-1.4%[11.5 µM]	1%&-2%[11.4 µM]
(51) CCN(CC)CCCN1C(=O)C(=O)/C(=C(/O)c2ccc3c(c2)OCCO3)C1c1ccco1 (configuration not stated)
→ i	1e-09	i	1.3%	4%
(52) CCC(C)[C@H](NC(=O)NCC1CCCO1)C(=O)OC (some centres not stated)
→ i	2.5e-08	i	-1.8%	-21%
(53) CCCc1ccc(OCc2ccc(C(=O)N3CCN(c4ccccn4)CC3)o2)c(OC)c1
→ i	1.1e-09	i	0.6%	?
(54) Cc1ccc2c(c1)c(C)c(C)n2CC(O)CN1CCOCC1 (configuration not stated)
→ i	3.9e-08	?	-0.8%	3%
(55) CC1CCN(C(=O)CSc2nnc(CSc3ncccn3)n2C)CC1
→ i	3.2e-08	i	-0.5%	-4%
(56) Cc1ccc(NC(=O)CSc2n[nH]c(-c3ccncc3)n2)cc1C
→ i	1e-09&2.2e-08	i	-0.7%&-0.1%	0%&13%
(57) O=C(CN1CCC(n2nnc3cc(F)ccc32)CC1)N1CCCc2ccccc21
→ i	1e-09	i	0.6%	.
(58) COC(=O)[C@@H]1C[C@H]1[C@@H](NC(C)=O)c1ccccc1
→ .	.	.	5.3%	1%
(59) COc1ccc(C(=O)CSc2nnc(CNc3ccc(C)cc3C)n2Cc2ccco2)cc1
→ i	2.6e-08	i	-2.8%	-11%
(60) Cc1cccc(N(CC(=O)NC2CCCC2)C(=O)CCCC(=O)Nc2ccccn2)c1
→ i	1e-09	i	0.1%	13%

Other compounds follow:
Below each compound – A488 autofl	A647 fluor	Resorufin autofl	AID923	TSHR agonist
(61) O=C(O)CCC(=O)N1CCc2cc(S(=O)(=O)N3CC=C(c4ccccc4)CC3)ccc21
→ .	.	.	-2.8%	3%
(62) COC(=O)NC(CC(C)=O)c1ccco1 (configuration not stated)
→ .	.	.	-0.5%[11.5 µM]	-3%[11.4 µM]
(63) O=C(CCc1nc2ccccc2[nH]1)Nc1ccc2c(c1)OCO2
→ i	2.3e-08	i	-0.9%	26%
(64) Cc1nnc(NC(=O)CSc2nnc(Cc3cccn3C)n2CCc2ccccc2)s1
→ i	2.5e-09	i	1.6%	1%
(65) CC1CCc2c(C(=O)Oc3cccc(-n4cnnn4)c3)csc2C1 (configuration not stated)
→ i	1e-09	i	-0.5%	?
(66) CCOC(=O)C1CCN(C(=O)CNS(=O)(=O)c2ccc(Br)s2)CC1
→ i	1e-09	i	-2.5%	8%
(67) Cc1csc(SCC(=O)N2CCN(S(=O)(=O)c3ccc(Cl)cc3)CC2)n1
→ i	2.8e-08	i	-1.0%	23%
(68) COc1ccc(Cl)cc1NC(=O)CN(c1ccccc1)S(=O)(=O)N(C)C
→ i	4.1e-09	i	2.6%	9%
(69) O=C(Nc1ccc(-n2nncc2-c2ccco2)cc1)c1cccc(F)c1
→ i	4.4e-09	i	-2.0%	?
(70) CC(=O)c1cccc(NC(=O)Cn2cc3c(n2)CCCC3)c1
→ .	.	.	-1.8%	-1%
(71) COC(=O)c1ccc(OCC(O)Cn2nnc3ccccc32)cc1 (configuration not stated)
→ i	4.3e-09	i	0.2%	6%
(72) CC1(C)Oc2ccc(C(=O)N3CCCC3)cc2N(CC(=O)NCc2ccccc2)C1=O
→ i	4.3e-08	i	-0.6%	9%
(73) Cc1ccc(NC(=O)c2cnccn2)c(OC(F)F)c1
→ i	2.1e-08	i	2.1%	2%
(74) CCC(C)NC(=O)C1c2cc(OC)c(OC)cc2C(=O)N(C)C1c1ccc(OC)cc1 (configuration not stated)
→ i	2.4e-08	i	1.0%	0%

Look-ups from the list.
For A647 fluor, FC(F)(F)c1ccc(-n2ccnc2)nc1 is listed with 1.1e-08
For A647 fluor, CC1CCc2c(C(=O)Oc3cccc(-n4cnnn4)c3)csc2C1 (configuration not stated) is listed with 1e-09
For A647 fluor, CCC(C)[C@H](NC(=O)NCC1CCCO1)C(=O)OC (some centres not stated) is listed with 2.5e-08
For A647 fluor, COc1ccc(NCc2cc3ccccc3[nH]c2=O)cc1 is listed with 4.8e-09
